Screens: PubChem BioAssay, several laboratories
Mtb H37Rv: M. tuberculosis H37Rv growth inhibitors, H37Rv strain (AID 1626); M. tuberculosis H37Rv growth inhibition; higher % means a stronger effect; one-dose inhibition, % at 10 µM; IC50 in µM for titrated hits; hit rate 0.95% among 220,000;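 active means confirmed in a dose series; inconclusive means inhibition above 80% but not taken into the dose series; inactive means below 80% or under 30% at every dose of the series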;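 further: bacteria incubated seven days before Alamar blue readout; 0% = bacteria only wells and 100% = bacteria with antibiotic wells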
Arbovirus inh: antivirals against arbovirus infection, primary screen, cell-based, full library, 10K replicate subset; arbovirus infection cell-based antiviral screen; inhibition, % at 10 µM; hit rate 0.37% among 200,000;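 active means inhibition from about 30%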;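 further: bluetongue infection of BSR cells; cell survival read as ATP light after 72 h; 0% = infected wells without compound and 100% = uninfected wells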
YopH PTP inh: YopH tyrosine phosphatase inhibitors, primary screen, biochemical, fluorescence Ex485/Em525; inhibition, %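 (about 10 µM by stock and volumes)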; YopH tyrosine phosphatase [Yersinia enterocolitica]; hit rate 0.16% among 140,000;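 active means inhibition of 50% or more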;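 further: controls were vehicle for no effect and minimum signal wells for full effect; inactives centre near -20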
Mtb bLac sens: beta-lactam sensitization of Mtb H37Rv, H37Rv. M. tuberculosis H37Rv growth with meropenem, percent inhibition; hits of this screen are not shown here. inhibition, % at 25 µM. hit rate 0.27% among 330,000. AID 434955, 2010;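 active means about 74% or more and at least 40 points above the plate without the antibiotic, then above 30% in a dose series; inconclusive means first-round hits that could not be retested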;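 further: growth measured after seven days incubation then overnight dye step; 0% = bacteria only wells and 100% = bacteria with antibiotic; twin plates without the antibiotic show which effects depend on it; some results filed as inactive read as strong as hits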
RecA intein inh: Mtb RecA intein splicing inhibitors, primary screen, biochemical, fluorescence, HTS. Protein RecA (Mycobacterium tuberculosis (strain ATCC 25618 / H37Rv)), P9WHJ3. cell-free RecA intein splicing. inhibition, %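 (about 9 µM by stock and volumes)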. hit rate 0.75% among 290,000. AID 2221, 2009; in the data active means inhibition above about 30%; inconclusive means no clear call, values can overlap the other calls;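 further: 0% = vehicle wells and 100% = reference inhibitor control wells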
Target sequence (P9WHJ3 whole entry, looked up): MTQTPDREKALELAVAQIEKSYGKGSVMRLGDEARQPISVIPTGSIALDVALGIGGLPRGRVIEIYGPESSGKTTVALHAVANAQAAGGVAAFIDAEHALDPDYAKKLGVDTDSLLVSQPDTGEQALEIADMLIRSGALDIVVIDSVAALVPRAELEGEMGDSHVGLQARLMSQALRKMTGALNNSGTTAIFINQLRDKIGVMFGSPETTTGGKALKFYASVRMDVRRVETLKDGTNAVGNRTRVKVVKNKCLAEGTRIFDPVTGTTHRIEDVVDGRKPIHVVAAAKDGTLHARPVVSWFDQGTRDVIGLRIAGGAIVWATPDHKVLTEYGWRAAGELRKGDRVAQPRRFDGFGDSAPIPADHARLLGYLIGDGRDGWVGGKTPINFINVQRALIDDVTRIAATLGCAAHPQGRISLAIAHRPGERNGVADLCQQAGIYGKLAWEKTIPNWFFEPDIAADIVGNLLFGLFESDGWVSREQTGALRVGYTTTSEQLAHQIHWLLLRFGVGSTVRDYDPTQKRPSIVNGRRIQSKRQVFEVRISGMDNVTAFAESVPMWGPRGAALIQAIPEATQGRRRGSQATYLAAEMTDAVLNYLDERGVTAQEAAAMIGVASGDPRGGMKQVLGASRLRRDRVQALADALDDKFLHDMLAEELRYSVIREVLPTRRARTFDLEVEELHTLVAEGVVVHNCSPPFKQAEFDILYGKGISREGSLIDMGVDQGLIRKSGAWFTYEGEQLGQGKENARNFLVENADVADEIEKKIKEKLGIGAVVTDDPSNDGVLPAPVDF
Arbovirus inh repeat: further read-out of Arbovirus inh, marked with its call; inhibition, %; measured here: 10K subset replicate screen; many hits read low in the repeat;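 first of two repeat runs on a subset; 0% = infected and 100% = uninfected wells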
Active calls of the source: *; ? = inconclusive; nt = no result given.

SMILES | Mtb H37Rv | Arbovirus inh | YopH PTP inh | Mtb bLac sens | RecA intein inh | others
C/C(=C\c1ccc2c(c1)OCO2)C(=O)c1c(C)cc(C)[nH]c1=O | -6.1% | -5.0 | nt | 12.4 | 0.6
CC(=O)OCC1OC(OC(C)=O)C(NC(=O)c2cccnc2)C(OC(C)=O)C1OC(C)=O (stereo not given) | -0.7% | 3.8 | -29.6 | 5.0 | -0.7
CN(CC(=O)Nc1ccccc1C(F)(F)F)C(=O)C1CCN(C(=O)c2ccc(Cl)cc2)CC1 | nt | nt | nt | -5.1 | -3.8
O=C(NNC(=O)c1ccccc1[N+](=O)[O-])c1ccccn1 | 0.4% | 3.0 | nt | 1.2 | 0.6
Cc1cccc(C(=O)NCc2nnc(SCC(=O)N3CCN(c4ccccc4)CC3)n2C)c1 | 3.0% | nt | -4.3 | -1.2 | nt
CCOc1ccccc1NC(=O)NNS(=O)(=O)c1cc(OC)ccc1OC | nt | nt | nt | 5.1 | -0.1
N#Cc1nc(-c2ccccc2F)oc1NC1CCCCC1 | 3.2% | 0.5 | -42.1 | 2.7 | -3.7 | Arbovirus inh repeat=11.6
CN(C)CCCN1C(=O)CSC1c1ccc([N+](=O)[O-])cc1 (stereo not given) | 0.5% | 7.9 | nt | -1.4 | -2.3
Oc1c(C(Nc2cccc(C(F)(F)F)c2)c2ccncc2)ccc2cccnc12 (stereo not given) | 2.3% | -18.1 | nt | 91.3 | -1.2
Cc1cccnc1NCc1ccc(O)c2ncccc12 | -8.1% | -24.4 | -66.6 | 73.5 | -11.8
COc1cc(C(O)c2nc3ccccc3n2C(C)C)cc(OC)c1OC (stereo not given) | nt | nt | nt | -9.7 | -2.8
COc1ccccc1C(=O)NNC1=C(C(=O)C(F)(F)F)CCC1 | 4.2% | -24.0 | -3.3 | 33.5 | 3.5
CC(=O)Nc1ccc(N2Cc3ccccc3C2)cc1 | nt | nt | nt | -4.2 | 4.9
Cc1ccc(C2CC(=O)NC(SCc3ccccc3)=C2C#N)o1 (stereo not given) | -9.4% | -3.6 | -29.9 | -3.9 | 3.6 | Arbovirus inh repeat=0.1
COc1ccc(S(=O)(=O)N2CCC(C(=O)N3CCC(C(N)=O)CC3)CC2)cc1Cl | -4.9% | -2.9 | nt | 8.0 | nt
CN1CCN(c2nc3c(c(=O)[nH]c(=O)n3C)n2Cc2cccc3ccccc23)CC1 | 2.5% | 6.4 | 2.4 | -6.0 | -3.9
Cc1ccc(N2CCN(c3ccc([N+](=O)[O-])cn3)CC2)c(C)c1 | nt | nt | nt | 0.4 | 0.1
O=C(CCNC(=O)c1ccco1)Nc1ccccc1N1CCOCC1 | -0.9% | 5.9 | nt | -1.3 | nt
CCC(=O)Nc1ccc(C(=O)Nc2c[nH]c(=O)[nH]c2=O)cc1 | -1.4% | 3.0 | nt | -1.6 | -1.9
CNCc1cc(Br)c(OCC(=O)Nc2ccccc2OC)c(OC)c1 | 1.4% | 2.0 | nt | 19.4 | 1.7
O=C(O)c1cc(Cl)nc2ccccc12 | -5.5% | nt | nt | 3.7 | 1.4
CCCCCC(=O)N1CCN(CCN=CC2=C(O)CC(c3cccs3)CC2=O)CC1 (stereo not given) | 0.5% | 3.9 | -10.8 | -0.8 | -1.5
COc1cc(NC(=O)CCc2ccccc2)nc(OC)n1 | -7.6% | 8.9 | 11.5 | -5.0 | 2.7
Cc1cc(C)c(OCCOCCN(C)C)c(Br)c1 | -6.0% | -17.1 | -18.1 | -9.3 | 1.4
CCCc1nnc(NC(=O)CCC(=O)NCc2ccc(Cl)cc2Cl)s1 | nt | nt | nt | 1.6 | -2.3
CCCCNC(=O)CCCCCNS(=O)(=O)c1ccc(OC)cc1 | 5.8% | 4.9 | -16.9 | ? | -4.0
O=C(c1ccccc1O)N1N=C(C(F)(F)F)CC1(O)c1ccc([N+](=O)[O-])cc1 (stereo not given) | nt | nt | nt | 5.1 | 8.0
COc1ccc(C(c2c(C)n(C)n(-c3ccccc3)c2=O)c2c(C)n(C)n(-c3ccccc3)c2=O)c(OC)c1OC | nt | nt | nt | 3.7 | -2.5
CC(=O)c1ccc(NC2OC(CO)C(O)C(O)C2O)cc1 (stereo not given) | -13.7% | 11.6 | -21.7 | 3.8 | 2.2
COc1cccc(CNc2nn[nH]n2)c1OC | -1.4% | 9.3 | -15.0 | 8.2 | -4.8
O=C(CCn1c(=S)[nH]c2ccccc2c1=O)NCCCN1CCCC1=O | 1.7% | 4.9 | -28.1 | -1.6 | 0.2
CNc1cc([N+](=O)[O-])ccc1N/C=C/C(=O)c1cccs1 | -2.9% | 8.8 | -9.2 | 15.5 | 0.7
CCOC(=O)C(C)Sc1cnccn1 (stereo not given) | -1.2% | 2.8 | nt | -1.2 | 1.1
CC(C)c1ccc(NC(=S)NNC(=O)c2cccnc2)cc1 | -5.6% | 4.6 | nt | 7.0 | 0.8
Cc1ccc2[nH]c3c(=S)nc[nH]c3c2c1 | -10.2% | -8.4 | -40.8 | -9.2 | -0.9
COc1ccc(N2CC(C(=O)NC3CCCCC3)CC2=O)cc1 (stereo not given) | nt | nt | nt | -2.0 | 0.2

Grouped by structure: those above with an aryl methoxy group
SMILES | Mtb H37Rv | Arbovirus inh | YopH PTP inh | Mtb bLac sens | RecA intein inh | others
CCOc1ccccc1NC(=O)NNS(=O)(=O)c1cc(OC)ccc1OC | nt | nt | nt | 5.1 | -0.1
COc1cc(C(O)c2nc3ccccc3n2C(C)C)cc(OC)c1OC (stereo not given) | nt | nt | nt | -9.7 | -2.8
COc1ccccc1C(=O)NNC1=C(C(=O)C(F)(F)F)CCC1 | 4.2% | -24.0 | -3.3 | 33.5 | 3.5
COc1ccc(S(=O)(=O)N2CCC(C(=O)N3CCC(C(N)=O)CC3)CC2)cc1Cl | -4.9% | -2.9 | nt | 8.0 | nt
CNCc1cc(Br)c(OCC(=O)Nc2ccccc2OC)c(OC)c1 | 1.4% | 2.0 | nt | 19.4 | 1.7
COc1cc(NC(=O)CCc2ccccc2)nc(OC)n1 | -7.6% | 8.9 | 11.5 | -5.0 | 2.7
CCCCNC(=O)CCCCCNS(=O)(=O)c1ccc(OC)cc1 | 5.8% | 4.9 | -16.9 | ? | -4.0
COc1ccc(C(c2c(C)n(C)n(-c3ccccc3)c2=O)c2c(C)n(C)n(-c3ccccc3)c2=O)c(OC)c1OC | nt | nt | nt | 3.7 | -2.5
COc1cccc(CNc2nn[nH]n2)c1OC | -1.4% | 9.3 | -15.0 | 8.2 | -4.8
COc1ccc(N2CC(C(=O)NC3CCCCC3)CC2=O)cc1 (stereo not given) | nt | nt | nt | -2.0 | 0.2

Continuation.
SMILES | Mtb H37Rv | Arbovirus inh | YopH PTP inh | Mtb bLac sens | RecA intein inh | others
CCOc1ccc(-c2[nH]ncc2-c2ccccc2)c(O)c1 | nt | nt | nt | 3.9 | 2.8
O=S(=O)(Cc1ccc(Cl)cc1)NCc1ccc2c(c1)OCO2 | nt | nt | nt | 5.1 | -1.1
COC(=O)c1sc(N2C(=O)C(O)=C(C(=O)c3ccc(C)o3)C2c2ccc(OC)c(OC)c2)nc1C (stereo not given) | nt | nt | nt | -5.7 | -7.9
CCOC(=O)C1CCCN(S(=O)(=O)Cc2ccccc2)C1 (stereo not given) | 0.9% | -3.0 | -24.5 | 7.1 | 3.3
CCOC(=S)SCc1cn2ccccc2n1 | -1.7% | -4.2 | nt | -0.1 | -6.9
CCOc1ccc(-n2c(N)c(C(=O)NCc3ccco3)sc2=S)cc1 | -0.3% | -2.2 | -7.0 | -5.6 | 1.5
Cc1ccnc(NC(=O)CS(=O)(=O)c2ccccc2)c1 | nt | nt | nt | 2.7 | 1.2
Cn1c(=O)oc2cc(S(=O)(=O)Nc3ccc(F)cc3)ccc21 | nt | nt | nt | ? | -0.1
COc1ccc(C(CNC(=O)c2ccc(S(=O)(=O)Nc3ccccc3F)cc2)N(C)C)cc1 (stereo not given) | nt | nt | nt | 3.5 | -1.5
O=C(NC(=O)c1ccccc1)Nc1ccccc1 | nt | nt | nt | 2.3 | 0.4
CCN(CC(=O)Nc1ccc(NC(C)=O)cc1)C(=O)CSCC(=O)Nc1ccc(C)cc1 | nt | nt | nt | -1.0 | -0.4
COc1cc(OC)c(N(C)S(=O)(=O)c2cccc(C(=O)NC(C)C3CC4CCC3C4)c2)cc1Cl (stereo not given) | -13.6% | nt | nt | 2.9 | 2.7
O=C(CN1C(=O)CCS(=O)(=O)c2ccccc21)Nc1ccc(F)cc1 | nt | nt | nt | 6.0 | 4.6
CSc1nnc(C(C)(C)C)c(=O)n1/N=C/c1c(O)ccc2ccccc12 | 2.5% | nt | nt | 4.4 | 3.4
CCCCn1c(=O)c(C(=O)NCc2ccncc2)c(O)c2ccccc21 | -0.3% | -25.8 | -40.8 | 6.9 | 3.1
COc1ccccc1OC(=O)CCc1nc2ccccc2s1 | 5.3% | 11.2 | nt | 29.5 | 0.6
Cc1ccc(/C=N/NC(=O)c2nnn(-c3nonc3N)c2CSc2ccc(Cl)cc2)cc1 | 3.0% | -8.7 | nt | 1.5 | 0.3
COc1ccc(C)cc1N(C(=O)Cn1nnc(-c2ccc(C)o2)n1)C(C(=O)NC1CCCC1)c1ccncc1 (stereo not given) | nt | nt | nt | -2.2 | 0.1
CN1C2CCC1CC(OC(=O)c1ccc([N+](=O)[O-])cc1)C2 (stereo not given) | -4.2% | -4.1 | -29.9 | nt | 3.1
COc1ccc(S(=O)(=O)Nc2cc(C(C)C)c(O)cc2C)cc1 | -7.4% | -7.2 | -29.8 | -5.2 | -0.1
COc1ccc(Cl)cc1C(=O)NNC(=O)COC(=O)CC(NC(C)=O)c1ccccc1 (stereo not given) | nt | nt | nt | -4.9 | 1.2
CCCCn1c(N)c(-c2nc3ccccc3o2)c2c([N+](=O)[O-])nn(CC)c(=O)c21 | -7.3% | -3.0 | -31.5 | 23.6 | -0.3
Nc1nc(CCOc2ccc(F)cc2)cs1 | 22.4µM* | 0.3 | nt | nt | 0.7
Cc1sc2ncn(CC(=O)NCCCOC(C)C)c(=O)c2c1S(=O)(=O)N1CCN(c2ncccn2)CC1 | -5.0% | -2.7 | nt | 1.2 | -4.8
CCOc1ccc(/C(O)=C2/C(=O)C(=O)N(c3ccccn3)C2c2ccc(C)cc2)c(C)c1 (stereo not given) | nt | nt | nt | -4.9 | -0.4
CCOc1ccc(-n2cc(C(=O)Nc3cccc(C)n3)c3cc(OC)c(OC)cc3c2=O)cc1 | -3.4% | nt | -21.1 | -4.7 | -5.6
CCCSC1=C(C#N)C(c2ccc(OC)cc2)C2=C(CC(C)(C)CC2=O)N1 (stereo not given) | 16.1% | 0.6 | -38.7 | 3.5 | 0.0
C=CCNc1nnc(SCC(=O)N2CCC(C(N)=O)CC2)s1 | nt | nt | nt | 1.1 | -2.6
CCCCNS(=O)(=O)/C=C/c1ccccc1 | 7.1% | 0.0 | -7.3 | -2.7 | 0.4
O=C(NCC1CCCO1)C1c2ccccc2C(=O)N1C1CCCCCC1 (stereo not given) | 0.4% | 8.5 | 13.8 | -3.4 | -0.1
CCc1nc(C)cn1S(=O)(=O)c1cc(Cl)c(OC)cc1Cl | -1.8% | 2.3 | -12.9 | 9.1 | 2.7
O=C(Nc1ccccc1Cl)C1CCCN1C(=O)OCc1ccccc1 (stereo not given) | nt | nt | nt | 2.6 | -4.4
NS(=O)(=O)c1ccc(N/N=C/c2cn(-c3ccccc3)nc2-c2ccccc2)c([N+](=O)[O-])c1 | 11.6% | -25.4 | nt | -2.2 | 0.6
CCN1CCN(c2nc3sc4c(c3c(=O)n2-c2ccc(OC)cc2)CCCCC4)CC1 | 7.0% | -5.2 | 1.1 | -3.9 | 4.8
Cc1nnc(SCC(=O)N(C)c2ccccc2)n1-n1cccc1 | nt | nt | nt | -14.3 | -0.4
CCCc1nc(SCC(=O)Nc2ccc(N3CCOCC3)cc2)c2ccccc2n1 | 2.7% | -6.0 | 4.3 | 1.9 | 1.3
COc1cccc2c1OCC1COc3c(c(=O)n(C)c(=O)n3C)C21 (stereo not given) | -12.1% | 7.3 | -37.4 | -9.4 | 0.9
CCOC(=O)CCNC(C)C1COc2ccccc2O1 (stereo not given) | -3.3% | 2.5 | -8.7 | -8.3 | 1.0
CN(C(=O)CC1C(=O)NCCN1CC(c1ccccc1)c1ccccc1)C(C1CC1)C1CC1 (stereo not given) | 1.8% | nt | nt | 1.6 | 7.1
COc1ccc(-c2nc(CS(=O)CC(=O)NCc3ccc(Cl)cc3)c(C)o2)cc1OC (stereo not given) | nt | nt | nt | 33.7 | 1.6

These rows are one share of the data, so the mix of outcomes need not match the whole.
